# D2 ag = Beta-Arrestin HTS for Positive Allosteric Modulators of the Human D2 Dopamine Receptor: Agonists. D(2) dopamine receptor (Homo sapiens), P14416. 360,000 compounds, 0.084% hits. AID 624465, 2012. DiscoveRx PathHunter D2 beta-arrestin, luminescence, 90 min; 100% = 57 uM dopamine signal. activation, % (no concentration beside the values); in the data active = activation above about 40%; inconclusive = about 15% to 40%; inactive = below about 15%; further: compound concentration not given in the record; the text of the record calls up to 30% inactive
# Target sequence (P14416 whole entry, looked up): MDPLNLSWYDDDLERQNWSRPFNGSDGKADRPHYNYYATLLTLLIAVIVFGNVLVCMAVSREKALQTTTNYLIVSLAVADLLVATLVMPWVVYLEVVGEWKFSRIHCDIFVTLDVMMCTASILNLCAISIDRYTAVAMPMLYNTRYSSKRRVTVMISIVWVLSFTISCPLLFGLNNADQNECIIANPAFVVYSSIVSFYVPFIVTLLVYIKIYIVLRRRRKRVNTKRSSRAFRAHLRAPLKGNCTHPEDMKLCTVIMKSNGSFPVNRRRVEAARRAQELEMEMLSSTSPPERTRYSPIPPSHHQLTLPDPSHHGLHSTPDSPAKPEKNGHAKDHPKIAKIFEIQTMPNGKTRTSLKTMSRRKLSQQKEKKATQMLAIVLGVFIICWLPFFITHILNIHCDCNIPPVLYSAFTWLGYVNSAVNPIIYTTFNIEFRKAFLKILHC
#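 Agonist mode: compounds alone added to overnight-plated D2 PathHunter cells for 90 min at 37 C, with 57 uM final dopamine (EC100) defining full response. Beta-arrestin recruitment detected by chemiluminescent reagent, read after 1 h at ambient temperature.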
# PINK1 expr mod = A Quantitative High throughput Screen to Identify Chemical Modulators of PINK1 Expression; AID 624263, 2012; Potency, µM (highest dose often 76.6 µM), without a hit: top-dose activation (PINK1 increase), most hits filed as activators; 410,000 compounds, 0.2% hits; PINK1 immunofluorescence, high-content cytometry, 24 h; active = well fitted activation curve with a large enough effect; inconclusive = small, poorly fitted or top-dose-only effect; inactive = flat fitted curve, though single readings scatter; cell line not stated here;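 further: potency means the concentration at half of the fitted maximal effect; % of control where 0% means no effect; nearly all actives have a fitted effect of over 65% in size; a mitochondrial uncoupler was the plate control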
#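 Fluorescence from anti-PINK1 antibody, together with nuclear and cell stains, was scanned on a laser-scanning cytometer. Before staining, stable-line cells were incubated 24 hours with compounds at 5 concentrations; primary antibody 12 h at 10 degrees C.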
# D2 PAM = Beta-Arrestin HTS for Positive Allosteric Modulators of the Human D2 Dopamine Receptor: Potentiators. 360,000 compounds, 0.23% hits. AID 624464, 2012. D(2) dopamine receptor (Homo sapiens), P14416. DiscoveRx D2 beta-arrestin cells, luminescence, 90 min; 100% = 57 uM dopamine signal. potentiation, % (test concentration not listed); active = potentiation of 50% or more; inconclusive = 30% to 50%; inactive = 30% or less;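 further: compound concentration not given in the record; tested on top of an EC20 dose of dopamine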
#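 PathHunter D2 cells, attached overnight at 37 deg C, received compound in DMSO plus dopamine at EC20 (50 nM final) for 90 min at 37 deg C. Beta-arrestin recruitment was read as luminescence after 1 h with detection reagent at ambient temperature.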
# Six1-Eya2 blk = qHTS Assay for Inhibitors of the Six1/Eya2 Interaction; Homeobox protein SIX1 (Homo sapiens) + Protein phosphatase EYA2 (Homo sapiens), …; AlphaScreen GST-Six1/His-Eya2 binding, biochemical; active compounds read low; control for the full effect not named in the record; activity change, % (no concentration beside the values); 360,000 compounds, 0.56% hits; in the data active = activity change below about -65%; inconclusive = about -30% to -65%; inactive = above about -30%; further: on the % scale 0 is the no-effect control and ±100 the full control effect
#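 AlphaScreen luminescence read after one hour at 37 °C in darkness. Pin-transferred compounds met GST-Six1 and His-Eya2 protein (5X stock 250 nM/500 nM) plus glutathione donor and Ni-chelate acceptor beads (5X, 50 ug/mL).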
# TRPML1 agonist = qHTS for Agonists of the Human Mucolipin Transient Receptor Potential 1 (TRPML1); Mucolipin-1 (Homo sapiens), Q9GZU1; TRPML1-expressing cells, Ca2+ dye fluorescence, FDSS; host cell line not named in the record; reference of the full effect not given here; activation, % (no concentration beside the values); 410,000 compounds, 0.12% hits; in the data active = activation above about 50%; inconclusive = about 30% to 50%; inactive = below about 30%; further: 0% is about no effect; the text of the record puts the active cut at 80%
# Target sequence (Q9GZU1 whole entry, looked up): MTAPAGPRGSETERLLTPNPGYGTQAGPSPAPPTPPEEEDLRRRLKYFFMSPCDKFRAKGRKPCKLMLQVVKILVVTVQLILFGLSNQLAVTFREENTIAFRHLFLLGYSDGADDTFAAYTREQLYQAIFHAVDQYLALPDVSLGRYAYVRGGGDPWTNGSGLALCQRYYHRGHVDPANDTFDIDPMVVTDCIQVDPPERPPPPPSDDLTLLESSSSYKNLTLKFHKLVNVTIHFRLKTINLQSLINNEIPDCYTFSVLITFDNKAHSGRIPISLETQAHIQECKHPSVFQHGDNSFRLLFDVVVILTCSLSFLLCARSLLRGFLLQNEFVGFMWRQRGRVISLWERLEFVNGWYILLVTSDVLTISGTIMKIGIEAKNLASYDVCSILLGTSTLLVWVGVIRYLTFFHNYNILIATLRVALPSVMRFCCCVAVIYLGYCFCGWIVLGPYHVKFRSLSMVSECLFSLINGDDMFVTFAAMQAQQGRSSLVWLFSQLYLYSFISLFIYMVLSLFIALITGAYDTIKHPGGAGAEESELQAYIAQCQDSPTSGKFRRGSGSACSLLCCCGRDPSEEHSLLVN
#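 In this qHTS format, compounds were pin-transferred onto Ca8-dye-loaded TRPML1-DL cells induced with Tet overnight, and intracellular Ca2+ fluorescence was recorded kinetically for 110 s after a 10 s baseline. A subsequent 4uM final 54-4 (EC80) addition followed by a second 110 s read served as the antagonist phase.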
# CtBP-E1A blk = qHTS Assay for Inhibitors of the CtBP/E1A Interaction; CtBP / adenovirus E1A interaction (AlphaScreen); AlphaScreen GST-E1A/His-CtBP binding, 1536-well; active compounds read low; control for the full effect not named in the record; activity change, % (concentration not given with the values); 340,000 compounds, 0.49% hits; AID 651724, 2012; in the data active means activity change below about -65%; inconclusive means about -30% to -65%; inactive means above about -30%; further: on the % scale 0 is the no-effect control and ±100 the full control effect
#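 Steps: dispense buffer (Tris pH 8.0, NaCl 300 mM, TCEP 1 mM, BSA, Tween 20); add 5X protein mix (GST-E1A, His-CtBP, 125 nM each); pin 23 nL compound; 2 h at 37 °C, dark; add 5X beads (50 ug/mL); 1 h; read.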
# An asterisk follows results filed as active; ? = inconclusive; . = not tested or not shown; & = joins results of further samples; [ ] = another dose, or the depositor's remark.
Molecule	D2 ag	PINK1 expr mod	D2 PAM	Six1-Eya2 blk	TRPML1 agonist	CtBP-E1A blk
COc1cccc(CNC(=O)C2CCCN(c3ncnc4c3nc3n4CCCCC3)C2)c1 (stereo not drawn)	0.7	0.9%	-6	-7	3.9	.
Cn1c(=O)oc2cc(S(=O)(=O)NCCC(=O)N3CCc4ccccc43)ccc21	-3.7	1.0%	-20	11	0.0	6
CCOc1cc(/C=N/NC(=O)c2cccs2)ccc1OC(=O)N1CCOCC1	2.8	3.5%	-6	-10	1.7	7
CCn1c2c(c3cc(OCC(C)C)ccc31)CCCC2=O	0.5	-1.0%[38.3 µM]	-26	48	-0.3	7
COc1ccc(S(=O)(=O)NC(C)C(=O)NCc2ccco2)cc1OC (stereo not drawn)	-3.9	1.3%	-4	-3	0.2	1
O=C(NCc1cccnc1)C1Cc2c(-c3ccc(Cl)cc3)ccnc2O1 (stereo not drawn)	-2.1	6.0%	-6	-6	-1.3	-2
CCC1Sc2ccccc2N(CC(=O)NCCC(C)C)C1=O (stereo not drawn)	-2.7	?	-18	6	1.8	1
OCCCNCc1cccc2ccccc12	-1.0	-2.9%	-36	2	0.9	-3
CC(=O)N1N=C(c2cccs2)CC1c1ccco1 (stereo not drawn)	-2.1	-1.5%	-3	-2	-0.5	2
CCOC(=O)c1c(NC(=O)CC2Nc3ccccc3NC2=O)sc(C)c1C (stereo not drawn)	-1.6	13µM*	-10	10	0.5	4
Cn1c(SCC(=O)c2ccc3c(c2)OCO3)nnc1C1COc2ccccc2O1 (stereo not drawn)	-1.9	-0.8%	-3	3	-0.1	2
c1ccc(N2CCN(c3ccccc3)C2c2cccnc2)cc1	-3.3	-1.3%	-21	-10	2.7	-11
COc1ccc(NC(=O)C2Cc3c(-c4ccc(NC(C)=O)cc4)ccnc3O2)cn1 (stereo not drawn)	?	7.4%	-1	1	0.2	0
Cc1cccc(CSc2nc3c(c(-c4cccs4)c2C#N)CN(C)CC3)c1	-0.5	9.1%	-32	-11	0.1	-18
CCOC(=O)C1=C(Cn2cnc3ccccc32)NC(=O)NC1c1cc(C)ccc1C (stereo not drawn)	?	-0.2%[38.3 µM]	?	-4	0.3	-13
O=C(CNS(=O)(=O)c1ccccc1)N/N=C\c1ccc(Cl)cc1	-0.7	3.2%	1	-2	2.6	6
CCCCN1C(=O)C(=O)NC[C@@H]1CC1CCCCC1	.	-0.1%	.	8	-0.3	8
CC1CCCN(C(=O)CSCC(=O)Nc2nc(-c3cccs3)cs2)C1 (stereo not drawn)	0.5	-0.1%	-5	-13	-0.1	-10
Cc1ccc(S(=O)(=O)N2CCOCC2)cc1NC(=O)COC(=O)CSc1ccc(Br)cc1C	0.8	-0.7%	-8	-1	2.4	-1
O=C(O)c1ccccc1C(=O)Nc1nc(-c2ccc3ccccc3c2)cs1	2.4	1.5%	6	-5	1.7	.
Cc1c(N(C)C)c(=O)n(-c2ccccc2)n1C	-2.1	0.5%&0.3%	-2	-2	-0.6&0.0	3
O=S(=O)(Nc1ccc(-n2cnnn2)cc1)c1cccc(F)c1	-5.4	-0.2%	-1	-5	-0.6	4
Cc1ncc([N+](=O)[O-])n1CC(=O)NC1CCCCC1	-0.7	1.3%	-21	8	-0.5	5
COc1cccc(C(=O)NCC(=O)NCc2cc(=O)n(C)c(=O)n2C)c1	4.9	-0.4%	-9	0	-0.2	8
CC(C)c1ccc(-n2nnnc2SCc2nc(N)nc(N)n2)cc1	3.9	5.9%	-4	7	1.4	-10
C#Cc1ccc([C@@H]2C=C(C(=O)NC3CC3)O[C@H](OCC)[C@H]2CCCO)cc1	-0.1	-0.4%	7	-20	0.1	-12
COc1ccc(CNC(=O)COC(=O)c2cc(C)oc2C)cc1	-3.3	0.6%	-14	-2	-0.9	1
Cc1noc(C)c1S(=O)(=O)N(C)C[C@H]1Oc2ccc(NC(=O)CCC(F)(F)F)cc2C(=O)N([C@H](C)CO)C[C@@H]1C	-3.8	-0.9%	-5	6	-0.4	10
Cc1c(NC(=O)c2csc3c2CCCC3)c(=O)n(-c2ccccc2)n1C	-1.9	-2.8%	-3	0	-1.1	8
OC1c2cc(Cl)ccc2-c2c(Cl)cc(Cl)cc21 (stereo not drawn)	5.1	11%	8	7	-0.6	4
O=C(N/N=C/c1ccc(Cl)s1)c1ccccc1[N+](=O)[O-]	-1.6	0.8%	-6	-10	-0.1	0
O=C(NC1=NCCS1)C1CC2CCC1C2 (stereo not drawn)	-0.4	-0.1%	-8	-2	0.0	0
CCN(CC)S(=O)(=O)c1ccc(N2CCOCC2)c(NC(=O)C2CCCO2)c1 (stereo not drawn)	-1.3	-0.9%	3	15	1.2	8
Cc1ccc(C(=O)N/C(=C\c2cccnc2)c2nc3ccccc3[nH]2)cc1	-5.9	-1.0%	-19	3	-0.5	3
CSc1sc(C(=O)N2CCc3ccccc32)cc1S(=O)(=O)C(C)C	-2.9	15%	-18	-2	-0.6	-1
Cc1ccc(N/N=C/c2c(O)cc(C)oc2=O)cc1	-13	-0.4%	-41	-5	0.8	-2
Fc1ccc(-c2nn3c(C4COc5ccccc5O4)nnc3s2)cc1 (stereo not drawn)	-0.7	-3.7%	3	4	3.5	-2
COc1ccc(CC(=O)N2CCOCC2)cc1	-0.8	1.4%	-4	12	0.7	0
Cc1ccc(-c2nc(NCc3cccnc3)c3ccccc3n2)cc1	4.1	6.5%	-21	-15	1.0	-4
Nc1nnc(SCC(=O)N2CCN(Cc3ccccc3)CC2)s1	-2.7	2.0%[38.3 µM]	-17	3	0.4	6
NS(=O)(=O)c1ccc(CCNC(=O)CCCC2=NS(=O)(=O)c3ccccc3N2)cc1	-1.5	-1.9%	4	-1	1.9	-12
CCC(C)NS(=O)(=O)c1ccc(NC(=O)CNCc2cccs2)cc1 (stereo not drawn)	-0.1	-0.2%	-2	-5	-0.3	8
COc1cc(/C=C2\SC(=O)NC2=O)ccc1OCC(=O)N1CCOCC1	-2.1	2.7%	-10	-10	0.5	-5
CCN1CCCC1CNC(=O)c1cc(S(=O)(=O)N(C)C)ccc1Cl (stereo not drawn)	-4.7	-1.1%	-15	1	0.9	-1
Oc1[nH]c2ccc(Br)cc2c1N=NC(=S)N1CCOCC1	-8.9	0.3%	-17	-78*	.	?
O=C(NCc1cccnc1)C1CC(=O)N(c2ccc(F)cc2)C1 (stereo not drawn)	-2.7	-0.6%	-18	-1	-0.9	4
C=CCNC(=O)CSc1nnc(-c2ccccc2Cl)n1-c1c(C)n(C)n(-c2ccccc2)c1=O	-2.2	0.4%[38.3 µM]	-12	3	1.5	10
CCc1cc(=O)[nH]c(SCC(=O)N2CCC(Cc3ccccc3)CC2)n1	-1.5	0.3%	-34	7	1.1	10
CC1(C(=O)NS(=O)(=O)c2ccccc2)CCN1C(=O)c1ccccc1CCc1ccccc1 (stereo not drawn)	-3.1	-0.2%	-5	7	-0.7	6
N#CC12CCCCC1CC1CCCCC1(C#N)N2N (stereo not drawn)	-8.7	-0.8%	-15	6	-0.3	-2
COc1ccccc1-c1oc2ccccc2c1C#CC1(N)CCCCC1	-3.0	-1.5%	-6	-5	-0.9	-6
CCOC(=O)C1CCN(C2=NC(=O)/C(=C/c3ccccc3OC)S2)CC1	-3.0	-1.3%	-9	-8	1.2	1
COc1ccc(NC(=O)CCc2nc(-c3ccc(C)cc3)no2)cc1Cl	-0.9	1.9%	0	-1	3.8	1
COc1ccc(Br)c(-c2nnc(CS(=O)(=O)c3ccccc3)o2)c1	-0.6	-3.3%	1	7	1.2	-6
O=C(Nc1ccc(-c2nc3cc(NC(=O)c4cccs4)ccc3o2)cc1)c1cccs1	-0.1	?	-9	1	0.4	6
CCc1cc(=O)oc2cc(C)cc(OCC(=O)NCC3CCC(C(=O)O)CC3)c12 (stereo not drawn)	-4.4	1.3%	-18	-2	.	-3
COc1cccc(NC(=O)CN(C)C(=O)c2cc3c(s2)CCCC3)c1	-3.9	0.0%	-3	-1	0.5	-20
NC(=O)C1(c2ccccc2)CCC(=O)N1c1ccccc1 (stereo not drawn)	-4.1	-0.2%	-4	3	1.0	8
CCOc1ccccc1NC(=O)c1cc(C(=O)c2cc(Br)ccc2O)coc1=N	-0.9	?	-1	-27	2.4	.
CC(C)(C)N(Cc1cc2ccccc2[nH]c1=O)C(=O)C1CCCCC1	-2.6	0.7%	1	9	1.4	6

# Later entries:
Molecule	D2 ag	PINK1 expr mod	D2 PAM	Six1-Eya2 blk	TRPML1 agonist	CtBP-E1A blk
Cc1nccn1CC(=O)O	0.9	2.0%	17	5	-0.6	1
CCCN(CCC)C(=O)c1c(NC(=O)CC)sc2c1CCCCC2	-3.3	0.5%	-24	-3	-0.5	2
C=CCn1c(SCC(=O)OCC)nc2cc(C(=O)NCc3ccco3)ccc2c1=O	0.4	4.1%[38.3 µM]	0	-1	1.2	-1
CCn1c2ccccc2c2cc(NC(=O)COC(=O)c3ccccc3F)ccc21	0.9	3.1%	13	4	1.7	1
Cc1cnc(C)c(N2CCC(C(=O)NC(C)c3cccs3)CC2)n1 (stereo not drawn)	-4.7	-0.3%	2	-1	-0.6	1
CCc1c(O)nc(SCC(=O)Nc2ccccc2)n(-c2ccccc2)c1=O	3.4	1.3%[38.3 µM]	1	-1	1.5	8
Cc1onc(-c2c(F)cccc2Cl)c1C(=O)NCCc1ccncc1	-3.8	-1.2%	-5	4	0.5	-24
COc1ccc(S(=O)(=O)N2CC(O)CC2C(=O)Nc2cccnc2)cc1 (stereo not drawn)	-1.5	-1.2%	-9	-2	-0.5	7
CC[C@]12c3[nH]c4cc(CCC(=O)N(C)C)ccc4c3CCN1C(=O)[C@@H](CC(=O)NCCCn1ccnc1)C[C@@H]2C(=O)N1CCN(C(=O)c2ccco2)CC1	-1.7	-0.1%	-5	3	0.1	1
Cc1cc(/C([O-])=C(/C(=S)Nc2ccc(F)cc2)[n+]2ccccc2)c(C)n1Cc1ccccc1Cl	-2.5	10%	-7	-6	0.4	.

# Arranged by value in Six1-Eya2 blk (ascending): 3 of the compounds above
SMILES	D2 ag	PINK1 expr mod	D2 PAM	Six1-Eya2 blk	CtBP-E1A blk
Cc1cc(/C([O-])=C(/C(=S)Nc2ccc(F)cc2)[n+]2ccccc2)c(C)n1Cc1ccccc1Cl	-2.5	10%	-7	-6	.
CCCN(CCC)C(=O)c1c(NC(=O)CC)sc2c1CCCCC2	-3.3	0.5%	-24	-3	2
CCc1c(O)nc(SCC(=O)Nc2ccccc2)n(-c2ccccc2)c1=O	3.4	1.3%[38.3 µM]	1	-1	8
